NS1 function inh: influenza NS1 inhibition. actives 0.4% (n = 270,000). S. cerevisiae slowed by influenza A NS1, growth recovery by OD600. Potency, µM (top dose mostly 46.1 µM), inactives show top-dose activity, positive = more growth. AID 2326; also: actives are rising curves; nearly all actives have a fitted effect of over 50% in size
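Compounds were scored for reversing the slow growth caused by influenza A NS1 in S. cerevisiae, measured by optical density at 600 nm. Assay medium contained 2% galactose at pH 6.0; NS1-free yeast of the same strain were the positive control.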
StopGo reporter: FMDV 2A StopGo reporter, luciferase signal; human cells with a luciferase reporter of 2A StopGo recoding; control for the full effect not named in the record; Potency, µM (highest dose often 57.9 µM), without a hit: top-dose signal change, negative = less light; actives 1.2% (n = 410,000); active = well fitted falling curve with a large enough effect; inconclusive = small, poorly fitted or top-dose-only effect; inactive = no such curve, though single readings can be large or run the other way; tested in HEK293T cells; also: % is scaled to controls: 0 for no effect and ±100 for the full control effect; nearly all actives have a fitted effect of over 45% in size; luciferase light after 4 h
RE007 growth inh: less growth of the S. pombe RE007 Vpr strain | S. pombe RE007 Vpr strain, BacTiter-Glo ATP luminescence, 24 h; control for the full effect not named in the record | Potency, µM (titrated, usually from 92.2 µM), for inactives: at the top dose activity change, negative = less growth | actives 0.21% (n = 360,000); active = well fitted falling curve with a large enough effect; inconclusive = small, poorly fitted or top-dose-only effect; inactive = no such curve, though single readings can be large or run the other way;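 also: % is scaled to controls: 0 for no effect and ±100 for the full control effect; nearly all actives have a fitted effect of over 50% in size; the assay follows cell death caused by Vpr and the record does not say whether a fall means rescue or toxicity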
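Fission yeast strain RE007, carrying one chromosomally integrated HIV-1 vpr copy, was seeded at OD 0.01 in PMG+AL medium with 23 nL pinned compound. After 24 h at 30 °C and 99% humidity, viability was read by BacTiter-Glo luminescence.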
SARS PLP yeast: SARS-CoV PLP inhibition in yeast | S. cerevisiae expressing SARS-CoV PLpro, growth rescue; control for the full effect not named in the record | Potency, µM (titrated, usually from 32.9 µM), for inactives: at the top dose activity, positive = growth rescue | actives 0.19% (n = 330,000) | AID 485353; also: 0% is about no effect; nearly all actives have a fitted effect of over 55% in size; growth read by luminescence after 48 h
Cruzain inh Det: cruzain (T. cruzi) inhibition with detergent. AID 1478. purified cruzain, Z-FR-AMC fluorescence, 0.01% Triton. Potency, µM, for inactives: max response, negative = inhibition, usual class: inhibitors. actives 0.43% (n = 200,000); active = well fitted curve in the direction sought with a large enough effect; inconclusive = small, poorly fitted or top-dose-only effect, or another doubt; inactive = no such curve, though single readings can be large; an effect the other way counts as inactive or inconclusive;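 also: plate controls were neutral wells for no effect and buffer without enzyme for full effect; nearly all actives have a fitted effect of over 40% in size; top concentration of the series not given in the record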
Target sequence (P25779 123-467 limits assumed): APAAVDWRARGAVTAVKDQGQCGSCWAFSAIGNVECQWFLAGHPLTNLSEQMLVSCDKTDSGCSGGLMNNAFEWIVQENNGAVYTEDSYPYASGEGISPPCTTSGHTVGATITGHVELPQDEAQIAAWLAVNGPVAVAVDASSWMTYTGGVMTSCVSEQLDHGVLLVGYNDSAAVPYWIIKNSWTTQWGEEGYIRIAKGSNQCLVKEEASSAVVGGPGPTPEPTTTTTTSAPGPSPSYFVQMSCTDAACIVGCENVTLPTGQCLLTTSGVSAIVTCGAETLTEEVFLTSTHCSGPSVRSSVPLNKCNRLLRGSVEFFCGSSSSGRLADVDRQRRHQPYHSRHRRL
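Compounds were screened in titration against cruzain (1.5 nM) with 0.01% Triton X-100 to counter colloidal aggregation. Activity was the AMC fluorescence increase over 60 s after adding 2 uM Z-FR-AMC at pH 5.5.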
LASV entry inh: inhibitors of Lassa virus binding or cell entry | Lassa virus pseudotype entry inhibition, cell reporter; control for the full effect not named in the record | Potency, µM (top dose mostly 37.9 µM), for inactives: at the highest dose activity change, negative = inhibition, actives largely listed as inhibitors | actives 1.2% (n = 300,000) | AID 540256; active means well fitted inhibition curve with a large enough effect; inconclusive means small, poorly fitted or top-dose-only effect, or effect the other way; inactive means flat fitted curve, though single readings scatter; tested in HEK293 cells; also: % is scaled to controls: 0 for no effect and ±100 for the full control effect; nearly all actives have a fitted effect of over 50% in size; luciferase read-out
MARV entry inh: inhibitors of Marburg virus binding or cell entry; Potency, µM (doses to about 37.8 µM), for the others: at the highest dose activity change, negative = inhibition, most hits filed as inhibitors; actives 1.8% (n = 300,000); Marburg virus pseudotyped entry inhibition, cell reporter; control for the full effect not named in the record; about a third of the inactives were read at about 46 µM; AID 540276; active = well fitted inhibition curve with a large enough effect; inconclusive = small, poorly fitted or top-dose-only effect, or effect the other way; inactive = flat fitted curve, though single readings scatter; tested in HEK293 cells; about a fifth of its hits are not listed in these tables; also: % is scaled to controls: 0 for no effect and ±100 for the full control effect; luciferase read-out
Cruzain inh noDet: blocks cruzain activity in detergent-free assay | P25779 | purified cruzain, Z-FR-AMC fluorescence, no detergent | Potency, µM, for the others: max response, negative = inhibition, most hits filed as inhibitors | actives 2.3% (n = 200,000) | AID 1476; active = well fitted curve in the direction sought with a large enough effect; inconclusive = small, poorly fitted or top-dose-only effect, or another doubt; inactive = no such curve, though single readings can be large; an effect the other way counts as inactive or inconclusive;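 also: plate controls were enzyme without inhibitor for no effect and buffer without enzyme for full effect; nearly all actives have a fitted effect of over 40% in size; top concentration of the series not given in the record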
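Purified cruzain at 1.5 nM, pre-incubated 15 min with compound at room temperature in 100 mM sodium acetate pH 5.5, 5 mM DTT, 0.00005% Triton X-100. Reaction started with 2 uM Z-FR-AMC; AMC fluorescence increase over 60 s gives rate.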
* = called active by the depositor; ? = inconclusive; nt = no result given; & = joins results of further samples; [ ] = another dose, or the depositor's remark. Unless noted, calls follow the shape of the dose curve; as a rule, active means well fitted rising curve with a large enough effect; inconclusive means small, poorly fitted or top-dose-only effect; inactive means no such curve, though single readings can be large or run the other way. Potency is read from the fitted curve at half-maximal effect.

SMILES,NS1 function inh,StopGo reporter,RE007 growth inh,SARS PLP yeast,Cruzain inh Det,LASV entry inh,MARV entry inh,Cruzain inh noDet
Cc1ccsc1C(=O)N1CCCC(CO)(Cc2ccccc2)C1 (stereo not given),-15%,27%,-1%,2%,nt,?,1%[46.1 µM],nt
COc1ccc(S(=O)(=O)N(C)CC(=O)NCCC2=CCCCC2)cc1OC,-7%,-1%,9%,7%,2.0%,-16%,4%,?
CN1CCN(S(=O)(=O)c2ccc(-c3noc(C4CCN(S(C)(=O)=O)CC4)n3)cc2)CC1,-5%,8%,12%,5%,-2.2%,7%,0%&8%,0%
COc1ccc2c(CC(=O)OCC(=O)Nc3cccc(S(N)(=O)=O)c3)coc2c1,-8%,-6%,-13%,3%,nt,nt,nt,nt
O=C(CC1N=C2c3ccccc3N=C(SCc3ccc(Cl)cc3)N2C1=O)NCc1ccco1 (stereo not given),9%,1%,-10%,0%,-14%,-1%,18%,?
CC(C)C(C)NC(=O)COC(=O)c1cccc(C(=O)OCC(=O)NC(C)C(C)C)n1 (stereo not given),3%,11%,-2%,0%,nt,nt,nt,nt
COCCCN1C(=O)C(=O)/C(=C(/O)c2ccc(S(=O)(=O)N3CCOCC3)cc2)C1c1cccc(Cl)c1 (stereo not given),14%,5%,-9%,-3%,nt,0%[46.1 µM],-2%[46.1 µM],nt
CCN(C(=O)c1cnc(NC(C)C)cc1C(F)(F)F)c1ccc(Cl)cc1,6%,?,0%,-2%,nt,?,-25%,nt
Cc1cc(CNCc2c(C(=O)N(C)Cc3ccccc3)nc3ccccn23)nn1C,-3%,0%,-12%,-1%,nt,nt,nt,nt
CC(C)NC(=O)CSc1nc(-c2cccs2)cc(-c2ccccc2)c1C#N,-35%,-7%,-13%,14%,-6.8%,-18%,-16%,20µM*
CCOc1ccc(N(CC(=O)Nc2cccc(F)c2)S(=O)(=O)c2c(C)noc2C)cc1,4%,-11%,27%,-5%,-11%,nt,nt,2%
O=c1oc2ccc3ccccc3c2cc1-c1nnc(-c2ccccc2)o1,-52%,-22%,3%,0%,17%,5%,0%,?
O=C(Nc1ccc2c(c1)CCC2)c1ccc(Br)s1,11%,23%,-3%,-2%,nt,?,?,nt
Cc1ccccc1C(=O)N1CCC(C(=O)Nc2ccccn2)CC1,nt,-11%,-1%,16%,nt,21%,10%,nt
COc1ccc(NC(=O)CCS(=O)(=O)c2cccc3nonc23)cc1Cl,13%,8%&8%,2%,-1%,-2.9%,-1%&2%[46.1 µM],?,-6%
CN1CCN(c2cc(C(F)(F)F)nc3ccc(F)cc23)CC1,-3%,-4%,-16%,1%,nt,12%[46.1 µM],-9%[46.1 µM],nt
N#C/C(=C1\CCCN1)c1nc2ccccc2c(=O)[nH]1,-3%,-7%,7%,-6%,-5.4%,4%,-22%,-2%
COCCn1c(=NC(=O)c2ccc3c(c2)OCO3)c(C#N)cc2c(=O)n3cccc(C)c3nc21,8%,nt,nt,-4%,-2.1%,nt,-7%,-4%
CC1CC(C)CN(S(=O)(=O)CCNC(=O)c2ccccc2)C1 (stereo not given),nt,-2%,-1%,1%,nt,1%,?,nt
CCCNc1ncnc2c1c(-c1ccccc1)cn2-c1ccc(OCC)cc1,nt,-20%,nt,nt,-0.3%,-17%[46.1 µM],nt,?
COc1ccc(N2CC(C(=O)Nc3cccc(OC(C)C)c3)CC2=O)cc1 (stereo not given),8%,-6%,14%,-1%,nt,nt,-5%[46.1 µM],nt
Cc1ccc(C2C(C#N)=C(N)N(N(C)C)C3=C2C(=O)CCC3)cc1 (stereo not given),14%,5%,-15%,7%,-0.8%,0%,-4%,1%
Cc1c(CC(=O)N2C[C@H]3C[C@@H](C2)c2cccc(=O)n2C3)c(=O)oc2c(C)c(O)ccc12,-7%,-14%,-2%,1%,nt,nt,nt,nt
CC(Oc1ccc(Cl)cc1Cl)C(=O)Nc1ccc2oc(-c3ccncc3)nc2c1 (stereo not given),-103%,?,8%,2%,-8.6%,?,2.1µM*,?
N#C/C(=C/c1ccc(CNS(=O)(=O)c2ccccc2)o1)C(=O)NCc1ccccc1,-10%,?,-6%,15%,-8.5%,-27%,?,9%
c1ccc(CN2CCOCC2)nc1,nt,-11%,7%,nt,nt,3%,8%,nt
Cc1[nH]c2ccccc2c1C(=O)C(=O)Nc1ccc2c(c1)OCO2,-10%,0%,-8%,4%,nt,nt,nt,nt
COc1cc(C(CCN2CCCC(C)C2)c2c(OC)cc(OC)c3c2OC(=O)CC3c2ccc(N(C)C)cc2)cc(OC)c1OC (stereo not given),-55%,-15%,0%,-1%,nt,nt,nt,nt
Cc1cc(Br)ccc1NC(=O)CN(C)C(=O)c1cc([N+](=O)[O-])ccc1N1CCOCC1,nt,-14%,13%,nt,nt,-28%,-25%,nt
C=C(C)COc1ccc(-c2n[nH]c(C)c2-c2ccc(OC)c(OC)c2)c(O)c1,-31%,?,4%,-3%,nt,0.63µM*,?,nt
CCC1(C(N)=O)CC2C=CC1C2 (stereo not given),nt,0%,3%,nt,nt,-2%[46.1 µM],-2%[46.1 µM],nt
CCOc1ccc(S(=O)(=O)N2CCOCC2)c2ccccc12,4%,-4%,-17%,-2%,nt,nt,nt,nt

Single records, as listed above. Screens in order: NS1 function inh, StopGo reporter, RE007 growth inh, SARS PLP yeast, Cruzain inh Det, LASV entry inh, MARV entry inh, Cruzain inh noDet
CCC1(C(N)=O)CC2C=CC1C2 (stereo not given) reads nt, 0%, 3%, nt, nt, -2%[46.1 µM], -2%[46.1 µM], nt
Cc1cc(Br)ccc1NC(=O)CN(C)C(=O)c1cc([N+](=O)[O-])ccc1N1CCOCC1 reads nt, -14%, 13%, nt, nt, -28%, -25%, nt
C=C(C)COc1ccc(-c2n[nH]c(C)c2-c2ccc(OC)c(OC)c2)c(O)c1 reads -31%, ?, 4%, -3%, nt, 0.63µM*, ?, nt
CCOc1ccc(S(=O)(=O)N2CCOCC2)c2ccccc12 reads 4%, -4%, -17%, -2%, nt, nt, nt, nt

(listing goes on)
SMILES,NS1 function inh,StopGo reporter,RE007 growth inh,SARS PLP yeast,Cruzain inh Det,LASV entry inh,MARV entry inh,Cruzain inh noDet
CCn1cc(CN2CCN(Cc3cccc(OC)c3)C(CCO)C2)c(C)n1 (stereo not given),-2%,3%,-12%,0%,nt,nt,nt,nt
Cc1ccc(C)c(S(=O)(=O)N2CCN(C(=O)CSC(=S)N3CCCC3)CC2)c1,nt,-15%,17%,2%,nt,0%,-17%[46.1 µM],nt
Cc1ccc(NC(=O)C2CCN(S(=O)(=O)c3ccc4c(c3)NC(=O)C(C)S4)CC2)c(Cl)c1 (stereo not given),-11%,18µM*,-6%,-1%,nt,nt,nt,nt
CCN(CC)S(=O)(=O)c1ccc2c(c1)c(=O)c(C(=O)N1CCN(c3cc(Cl)ccc3C)CC1)cn2C,nt,-19%,nt,nt,-1.8%,3%[46.1 µM],-15%[46.1 µM],?
CCn1c(=O)cc(SCC(=O)NCCc2cccc(C)c2)c2ccccc21,nt,-1%,nt,nt,-1.2%,5%[46.1 µM],-17%[46.1 µM],8%
COc1ccc(C2CC(c3ccccc3)n3nc(NC(=O)c4cccs4)nc3N2)cc1 (stereo not given),?,-13%,-14%,0%,4.1%,-15%,?,-7%
COc1ccc(NC(=O)C2=CCN(S(=O)(=O)c3ccccc3)CC2)cc1OC,-16%,-18%,7%,-2%,nt,nt,nt,nt
O=C(Cn1cnc2c(nnn2-c2ccc(F)cc2)c1=O)N1CCCC1,-4%,29%,14%,-7%,4.4%,-4%,9%,-3%
O=C(COC(=O)c1cc([N+](=O)[O-])ccc1NCCO)c1ccc(Cl)cc1,3%,4%,11%,12%,-9.3%,-10%,-8%[46.1 µM],-1%
CCN(CC)S(=O)(=O)c1cccc(C(=O)NC(C(=O)Nc2nnc(C3CC3)s2)C(C)C)c1 (stereo not given),-80%,21%,3%,-4%,2.0%,6%,?,?
O=C(CN(Cc1ccccc1)S(=O)(=O)c1ccc(Br)cc1)NCc1ccco1,-1%,-14%,4%,10%,-5.7%,-2%,-2%,-2%
Cc1nn2c(-c3ccccc3)ccnc2c1-c1ccccc1,-8%,-31%,-4%,-17%,-3.4%,?,?,4%
Cc1ccn2c(=O)nc(SCC(=O)Nc3ccc4c(c3)OCCO4)nc2c1,nt,-4%,-16%,6%,nt,-28%,?,nt
CCOC(=O)C1=C(COC(=O)C(CC)Oc2ccccc2)NC(=O)NC1C (stereo not given),nt,-16%,31%,-2%,nt,5%,13%,nt
Cc1ccc(S(=O)(=O)N(C)C)cc1NC(=O)COC(=O)Cc1cccs1,nt,-8%,0%,1%,nt,24%,0%,nt
Cc1ccc(NS(=O)(=O)c2ccc(Cl)s2)nc1,23%,48%[activator],19%,4%,nt,?,0%[46.1 µM],nt
COc1cc(NC(=O)Cn2ncc3c2-c2ccccc2OC3)cc(OC)c1OC,-15%,0%,6%,-4%,1.1%,nt,-1%,14%
Cc1nc(CC(=O)NNS(=O)(=O)c2cccc(Cl)c2Cl)cs1,nt,-3%,-14%,-6%,nt,0%,1%,nt
COc1ccccc1C(=O)NCCC(=O)Nc1ccc(C)cn1,-5%,-4%,12%,2%,nt,29%[46.1 µM],6%[46.1 µM],nt
COc1ccc(NC(=O)C2C3C=CC4(O3)C2C(=O)N(CCCN2CCCC(C)C2)C4C(=O)NC2CCCCC2)cc1 (stereo not given),-4%,-4%,6%,0%,nt,nt,6%[46.1 µM],nt
CC(C)(C)c1ccc(OCC(=O)NCCN2CCCC2)cc1,9%,-5%,10%,5%,2.1%,?,?,4%

Screening results (PubChem BioAssay)
